Screening results (PubChem)
MLL AF4-AF9 inh: inhibitors of AF4 peptide binding to AF9, primary screen, biochemical, AlphaScreen, biotin-AF4 peptide, FLAG-AF9, single point; inhibition, % at 10 µM; hit rate 0.47% among 350,000; AID 651704, 2012;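 active means every replicate reaching a set inhibition limit, whatever the replicate mean, cut at about 25% in these data; inconclusive means mean inhibition reaches that limit but some replicates miss it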;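 further: 0% = plate neutral control median and 100% = total signal loss; the record names both 10 and 1 µM as test concentration; the first replicate is given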
Vif TR-FRET: inhibitors of Vif binding to APOBEC3G peptide, primary screen, biochemical, TR-FRET, GST-Vif 1-94, biotin-A3G peptide, dose response retest (AID 1117319); Virion infectivity factor (Human immunodeficiency virus type 1 group M subtype B (isolate …; TR-FRET GST-Vif / biotin-A3G peptide binding; higher % means a stronger effect; test concentration not given here; strong numbers were not always called active; inhibition, %; hits with a dose series show IC50 in µM; hit rate 0.57% among 260,000;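 active means above the screen mean plus three standard deviations and confirmed in dose response; inconclusive means results disagree or hit not tested in dose response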;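 further: Vif residues 1-94 fused to GST binding biotinylated APOBEC3G peptide 110-148; 0% = full assay without inhibitor and 100% = GST in place of GST-Vif; retest series ran down from 100 µM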
UCH37 DUB inh: inhibitors of human UCH37 deubiquitinase, primary screen, biochemical, Ub-AMC cleavage, fluorescence. purified proteasome/UCH37. inhibition, % (test concentration not listed). hit rate 0.33% among 330,000. AID 588478, 2011;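 active means mean of two replicates above 20%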;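 further: 0% = compound-free wells with enzyme and 100% = wells lacking proteasome; stock transfer was 100 nL into about 20 µL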
Target sequence (Q9Y5K5 whole entry, looked up): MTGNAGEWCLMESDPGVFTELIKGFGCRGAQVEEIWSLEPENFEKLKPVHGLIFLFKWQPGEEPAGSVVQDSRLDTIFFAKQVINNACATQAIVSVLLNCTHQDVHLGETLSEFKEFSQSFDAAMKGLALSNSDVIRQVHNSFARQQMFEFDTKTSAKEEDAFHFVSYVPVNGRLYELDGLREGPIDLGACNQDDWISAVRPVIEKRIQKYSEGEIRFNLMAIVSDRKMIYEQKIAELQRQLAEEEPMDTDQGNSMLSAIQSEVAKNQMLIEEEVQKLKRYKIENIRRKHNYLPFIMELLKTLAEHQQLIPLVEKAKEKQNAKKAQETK
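Assay system: Proteasome-bound UCH37. Buffer or medium: pH 7.4 Tris-HCl (50 mM) with ovalbumin, ATP-MgCl2, DTT. Incubation: 30 min preincubation with enzyme, 25 min cleavage at room temperature. Measured by: fluorescence, ex 355 nm, em 460 nm. Read-out basis: percent inhibition. Control set: wells without proteasome as full block, compound-free enzyme plus substrate as uninhibited.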
HNF4A DNA FP: change in binding of human HNF4A to DNA, primary screen, biochemical, fluorescence polarization, FITC-DNA. activity change, % at 10 µM. 1 h. AID 1224865, 2016. Hepatocyte nuclear factor 4-alpha (Homo sapiens), P41235. hit rate 0.3% among 360,000; in the data active means activity change above about 30%, passing the limit was not always enough;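 further: controls were the assay level and a saturating level of protein; the project sought stronger binding though the title names inhibitors; some compounds called inactive have numbers as strong as hits; positive values seem to mean higher polarization but the record does not say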
Target sequence (P41235 whole entry, looked up): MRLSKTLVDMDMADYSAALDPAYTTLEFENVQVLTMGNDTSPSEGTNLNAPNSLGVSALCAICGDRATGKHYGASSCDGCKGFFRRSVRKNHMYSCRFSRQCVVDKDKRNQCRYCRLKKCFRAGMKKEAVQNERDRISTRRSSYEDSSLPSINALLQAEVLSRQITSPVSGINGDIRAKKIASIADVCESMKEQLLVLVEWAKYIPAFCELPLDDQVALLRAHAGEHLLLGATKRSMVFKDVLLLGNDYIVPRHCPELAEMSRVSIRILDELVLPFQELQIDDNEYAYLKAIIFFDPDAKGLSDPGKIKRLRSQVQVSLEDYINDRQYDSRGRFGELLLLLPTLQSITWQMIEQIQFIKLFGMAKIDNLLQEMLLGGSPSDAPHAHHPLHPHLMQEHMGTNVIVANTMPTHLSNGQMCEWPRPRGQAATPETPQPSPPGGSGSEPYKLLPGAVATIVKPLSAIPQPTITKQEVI
FGF22 binding: binders of human FGF22 protein, primary screen, FGF22 synaptogenesis inhibitor project, biophysical, thermal shift, single point; recombinant FGF22 thermal shift, SYPRO orange fluorescence; percent of sucrose octasulfate shift, DMSO zero; Fibroblast growth factor 22 (Homo sapiens), Q9HCT0; AID 651658, 2012; calls only at 9.99 µM; hit rate 1.5% among 340,000;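 active means melting point raised past a set limit in the mean and every replicate; inconclusive means no clear call; three in four hits are not shown here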
Target sequence (Q9HCT0 whole entry, looked up): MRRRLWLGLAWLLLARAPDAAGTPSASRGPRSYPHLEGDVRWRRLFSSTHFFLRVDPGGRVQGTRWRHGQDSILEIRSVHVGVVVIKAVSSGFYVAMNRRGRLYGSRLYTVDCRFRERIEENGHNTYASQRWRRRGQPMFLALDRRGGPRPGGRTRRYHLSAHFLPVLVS
RanGTP-Impb inh: inhibitors of RanGTP-importin-beta interaction, primary screen, biochemical, FRET, CFP-Ran, YFP-importin-beta, homogeneous | Ran GTPase (GTP-bound) - importin-beta complex | cell-free CFP-Ran/YFP-importin-beta FRET ratio | inhibition, % (no concentration beside the values) | hit rate 1.1% among 300,000 | AID 2216, 2009;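 active means most replicates above 15%; inconclusive means exactly half above 15%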;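 further: 0% = DMSO wells and 100% = Ran loaded with GDP instead of GTP; wells of about 40 µL received 100 nL stock; the first replicate is given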
Ecoli growth: E. coli growth inhibition, primary screen, OD600. Escherichia coli growth, 23 h; stronger effect = lower value. AID 1053175, 2014. hit rate 0.21% among 330,000. OD600 absorbance (concentration not given with the values);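 active means OD600 absorbance below the run mean of sample wells minus 3.6 SD, in any replicate, cut at about 0.56 in these data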;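 further: stock transfer was 300 nL into about 60 µL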
Active calls of the source: *; i = inactive; ? = inconclusive; · = no result given. Only part of the results is shown; the hit share may differ from the screen's.

SMILES	MLL AF4-AF9 inh	Vif TR-FRET	UCH37 DUB inh	HNF4A DNA FP	FGF22 binding	RanGTP-Impb inh	Ecoli growth
Cc1cccc(/C=N/NC(=O)c2cc(-c3cccnc3)nc3ccccc23)c1	-1.1	·	·	0.1	i	-0.5	·
CCCCNC(=O)c1ccc2nc(CC)c(N(C)Cc3cccs3)n2c1	2.3	·	·	6.8	i	·	·
CC(OC(=O)c1cc2c(ccc3ccccc32)oc1=O)c1nc2ccccc2s1 (stereo not given)	-4.0	·	i	5.9	i	49.1*	0.737
O=C1CSC(c2cccc([N+](=O)[O-])c2)N1CCN1CCCCC1 (stereo not given)	-0.2	2.2%	1.7	0.1	i	-0.5	0.703
CCCCOC(=O)C1=C(C)Nc2nnnn2C1c1ccc(OC)c(OC)c1OC (stereo not given)	·	2.4%	5.4	-2.2	·	4.5	0.727
CCC(C)(C)NC(=O)CN(C(=O)CNS(=O)(=O)c1ccccc1)c1ccccc1	·	2.0%	0.7	-0.1	·	-1.1	0.745
COc1ccc(C2C(C(=O)N3CCN(C)CC3)c3ccccc3C(=O)N2C2CCCCC2)cc1 (stereo not given)	·	-4.1%	2.1	0.1	·	0.3	0.731
O=C(NCCCN1CCOCC1)c1ccc(CSc2ccc(Cl)cc2)cc1	4.1	·	4.3	7.1	·	2.5	0.673
O=C(c1ccco1)N1CCN(CCOc2ccccc2)CC1	-0.6	·	-0.6	1.8	i	-1.8	0.7
Cc1cccc(N2CCN(C(=O)c3ccoc3C)CC2)c1C	1.3	·	4.0	1.4	i	5.6	0.698
COCCCNC(=O)CN(CCc1ccccc1)S(=O)(=O)c1ccc(OC)cc1	-2.4	3.9%	3.0	-0.9	i	-10.7	0.693
Cc1cccc(C)c1OCC(=O)NCC1CCCO1 (stereo not given)	-5.1	-5.0%	0.7	-1.5	i	-0.4	0.69
Nc1n[nH]c(C2CC2)c1N=Nc1ccc(Cl)cc1	5.3	-6.7%	5.6	5.6	i	-1.6	0.634
CCOC(=O)CNC(=O)CNC(=O)c1nn(-c2ccc(OC)c(Cl)c2)c(=O)c2ccccc12	-1.1	-8.8%	3.3	1.7	i	-4.8	0.685
CCCCCCCCN1C(=O)[C@H](CC(=O)NCc2cccs2)C[C@@]2(C(=O)OC)CC(C)(C)CC=C12	-2.5	·	·	2.7	i	·	·
CCn1c(SCC(=O)Nc2ccccc2)nnc1-c1cccs1	-3.7	-1.7%	0.2	0.6	i	-3.9	0.668
COc1ccnc(CN(C)C(=O)C2CCC(=O)N(Cc3cccc(C(F)(F)F)c3)C2)c1 (stereo not given)	0.1	·	3.8	-4.2	i	1.4	0.691
Cc1ccc(CNC(=O)c2ccc(NC(=O)C3=CSCCO3)cc2)cc1	1.6	·	0.6	-1.5	i	0.7	0.693
COc1cccc(OC)c1OCCCCN1CCC(Cc2ccccc2)CC1	1.3	-11.1%	6.3	0.1	i	-0.5	0.704
COc1ccc(S(=O)(=O)N2CCC(C(=O)NCCC(=O)NCc3ccccn3)CC2)cc1	-2.3	-2.8%	·	4.5	i	·	·
O=C(NCCN1CCOCC1)c1ccc(CSCc2cccc(Cl)c2)o1	6.7	-2.0%	1.1	-3.6	i	1.3	0.675
O=C(c1ccco1)N1CCN(C(c2ccccc2Cl)c2nnnn2Cc2ccco2)CC1 (stereo not given)	·	-0.5%	1.0	3.5	·	·	0.694
CN(C)c1ccc(C(=O)N2CCN(c3cc(C(F)(F)F)nc4ccccc34)CC2)cc1	·	-2.6%	-0.8	-2.0	i	2.9	0.712
Cc1ccc(NC(=S)Nc2cccc3cnccc23)c(C)c1	-0.4	16.0%	4.4	1.4	i	0.7	0.712
CCCC(=O)NC(=S)Nc1sc2c(c1C(N)=O)CCC2	0.6	-6.0%	3.8	1.6	i	9.2	0.762
CCc1nnc(NS(=O)(=O)c2ccc(N/C=C\C(=O)c3ccc(F)cc3)cc2)s1	-1.8	6.3%	-1.4	-3.3	i	-1.0	0.659
COc1ccc(C2NC(c3ccc(OC)cc3)C([N+](=O)[O-])C(C)(C)C2[N+](=O)[O-])cc1 (stereo not given)	6.8	·	6.2	-3.0	i	1.3	0.716
COCc1cccc(-c2csc(C(C)(NC(C)=O)c3ccccc3)n2)c1 (stereo not given)	0.2	·	·	-1.5	i	·	·
Cc1nnc(NC(=O)C2COc3ccccc3O2)s1 (stereo not given)	·	18.5%	3.2	-0.5	·	2.2	0.657
O=C(Nc1ccncc1)C1CCN(S(=O)(=O)c2cccc(C(F)(F)F)c2)CC1	11.6	-12.9%	-3.1	1.9	i	·	0.657
Cc1cccc(NC(=O)COc2ccc(/C=N\n3cnnc3)cc2)c1	2.5	0.5%	·	-4.4	i	0.1	·
Cc1nn(-c2ccccc2)c(N)c1Sc1cccc([N+](=O)[O-])c1	·	0.7%	1.5	-0.3	·	1.8	0.708
CC1=C(C(=O)Nc2ccc(C)cc2)C(c2ccco2)NC(=O)N1 (stereo not given)	·	-10.1%	-0.9	-2.5	·	-3.8	0.771
O=C(NC1CCCCCCC1)c1ccccc1-c1ccccc1	1.8	0.8%	1.5	-1.3	i	2.9	0.693
Cc1ccc(C(Sc2ccccc2)C(Cn2cncn2)C(=O)c2ccccc2)cc1 (stereo not given)	·	-5.5%	0.1	-2.8	·	?	0.735
O=[N+]([O-])c1cccc(NC(=S)N2CCCC2)c1	-1.8	·	-0.9	0.2	i	·	0.645
CCN1C(=O)c2ccc(C(=O)Nc3ncc(C)s3)cc2C1=O	-0.3	7.7%	4.9	4.4	i	0.1	0.67
O=C(NCc1ccc2c(c1)OCO2)c1cc(Cl)ccc1Cl	-0.4	-3.7%	5.9	-0.5	i	1.0	0.705
CSCc1c(C(=O)OCC(=O)NC2CCCCC2)oc2ccccc12	?	8.8%	2.1	-3.2	i	·	0.68
N#Cc1ccccc1NC(=O)C1CCCO1 (stereo not given)	-2.1	1.0%	·	3.8	i	·	·

Four entries out of the list above, sorted by their value in MLL AF4-AF9 inh, falling.
Structure	MLL AF4-AF9 inh	Vif TR-FRET	UCH37 DUB inh	RanGTP-Impb inh
O=C(Nc1ccncc1)C1CCN(S(=O)(=O)c2cccc(C(F)(F)F)c2)CC1	11.6	-12.9%	-3.1	·
CCN1C(=O)c2ccc(C(=O)Nc3ncc(C)s3)cc2C1=O	-0.3	7.7%	4.9	0.1
O=C(NCc1ccc2c(c1)OCO2)c1cc(Cl)ccc1Cl	-0.4	-3.7%	5.9	1.0
O=C(c1ccco1)N1CCN(CCOc2ccccc2)CC1	-0.6	·	-0.6	-1.8

(more compounds)
SMILES	MLL AF4-AF9 inh	Vif TR-FRET	UCH37 DUB inh	HNF4A DNA FP	FGF22 binding	RanGTP-Impb inh	Ecoli growth
O=C(CN1C(=O)NC(c2ccccc2)(c2ccccc2)C1=O)Nc1ccc2[nH]c(=O)[nH]c2c1	-1.8	9.9%	0.7	-5.2	i	1.3	0.658
CC1(C)CC(=O)N(CC(=O)O)c2ccccc2S1(=O)=O	-6.4	2.0%	1.1	2.7	i	?	0.727
O=C1c2ccccc2C(c2nnnn2-c2ccc3c(c2)OCCO3)N1Cc1ccc(F)cc1 (stereo not given)	-4.8	·	·	-1.0	i	·	·
CCN(C(=O)C1CCN(S(=O)(=O)c2ccc3c(c2)oc(=O)n3C)CC1)c1cccc(C)c1	-0.8	-3.5%	5.0	4.0	i	0.1	0.715
CCc1ccccc1N1CSC2=C(C#N)C(c3ccccc3F)CC(=O)N2C1 (stereo not given)	2.6	11.9%	9.6	1.3	i	?	0.736
CCCSc1nnc(CSc2nc(C)cc(C)n2)n1C	-2.5	3.6%	-2.2	-2.3	i	2.7	0.686
O=C(NC1CC1)c1ccc(-c2cnc3cccnn23)cc1	0.3	·	·	2.8	i	·	·
CN(Cc1ccccc1)C(NC(=O)c1ccco1)C(Cl)(Cl)Cl (stereo not given)	-0.8	-3.6%	-1.1	-1.7	i	1.7	0.677
O=S(=O)(NCC1(N2CCOCC2)CCCCC1)c1ccc(F)cc1	-1.3	-0.6%	0.3	-3.8	i	-0.9	0.673
COCC(C)N=C1SCCN1Cc1ccccc1 (stereo not given)	1.4	·	5.3	-2.0	i	5.0	0.671
CC(=O)Nc1ccc(S(=O)(=O)N2CCC(C(=O)NCc3cccnc3)CC2)cc1	-2.1	·	-0.9	1.4	i	2.1	0.662
Cc1ccc(OCc2ccc(C(=O)NCC3CCCO3)cc2)cc1 (stereo not given)	-7.7	-9.2%	3.9	-5.9	i	-1.9	0.711
COc1ccc(C(=O)Cn2nnc(-c3ccccc3NC(=O)C3CCCCC3)n2)cc1	·	-3.1%	-1.2	8.1	·	11.3	0.72
CCn1c(SCC(=O)Nc2ccc(OCc3ccccc3)cc2)nnc1-c1ccco1	·	·	-0.5	-1.4	·	0.5	0.656
CC(=O)c1c(-c2ccccc2)c2cc([N+](=O)[O-])ccc2[nH]c1=O	-17.8	-0.9%	·	-2.0	i	0.4	·
CCCOc1ccc(N2C(=O)CC(N3CCC(c4nc5ccccc5o4)CC3)C2=O)cc1 (stereo not given)	·	-14.6%	-0.5	·	·	0.0	0.67
COC(=O)c1cc(NS(=O)(=O)c2ccc(NCc3cccnc3)c(N)c2)cc(C(=O)OC)c1	·	·	0.4	1.7	·	3.3	0.669
Cc1coc2c(C)c3oc(=O)c(CCC(=O)NCCC(=O)O)c(C)c3cc12	-4.2	-6.7%	-94.4	2.1	i	3.7	0.686
COc1cc(F)ccc1S(=O)(=O)N1CCN(c2ccccc2)CC1	3.8	?	1.0	1.4	i	-6.7	0.668
Cn1c(/N=C/c2ccccc2[N+](=O)[O-])nc2ccccc21	-4.1	-0.4%	·	0.1	i	-1.6	·
CC(=O)c1ccc(OCc2cc(C(=O)N(C)Cc3ncc(C)[nH]3)no2)cc1	-6.6	·	1.8	3.7	i	-2.0	0.731
c1ccc(CN2CCN(CCOCCOc3cccc4ccccc34)CC2)cc1	9.8	-1.8%	·	4.6	i	1.7	·
O=S(=O)(Cc1ccccc1)N1CCNCC1	-4.2	·	0.7	-1.3	i	-1.1	0.634
CCN(CC(=O)Nc1ccc2c(c1)OCCO2)C(=O)CN1C(=O)NC(C)(c2ccc(C)cc2)C1=O (stereo not given)	-0.9	4.3%	3.5	-7.1	i	·	0.696
CC1CCCCN1C(=O)CN(C)S(=O)(=O)c1cccc2nsnc12 (stereo not given)	-0.2	·	5.0	-3.2	i	-0.3	0.635
Cc1n[nH]c(=O)c2c(NC(=O)CSc3nnc(-c4ccco4)n3C)oc(C)c12	0.5	-8.3%	17.6	4.4	i	·	0.662
COCCNC(=O)Cc1c(C)c2c(cc(C)c3c(C(C)(C)C)coc32)oc1=O	3.6	-2.9%	-172.5	3.5	i	7.0	0.672
COc1ccc(CCNc2ccc(C(=O)O)cc2[N+](=O)[O-])cc1OC	2.5	-9.7%	4.7	3.4	i	-3.6	0.665
COc1ccc(Br)c(OC)c1C(=O)NC(=O)Nc1nc(C)cc(C)n1	0.9	-8.2%	4.5	1.9	i	2.2	0.635
Cc1ccc(OCC(=O)O/N=C(\N)c2ccccn2)cc1	-3.2	·	-2.5	0.8	i	-1.1	0.68
